H5N1 CPE: MDCK cell protection from H5N1 avian flu | cytopathic effect, luminescence, 72 h; hits give high values; no value below 0 was filed and about half of the inactive calls have no number; reference of the scale not given here | inhibition, % at 50 µM | hit rate 0.07% among 96,000; in the data active = inhibition above about 25%
* = called active by the depositor; i = inactive. This is a subset, so the mix of outcomes need not match the whole.

The opening 2 entries as a preview:
| structure | H5N1 CPE |
| --- | --- |
| O=C(O)CN1C(=O)SC(Nc2ccccc2C(=O)O)C1=O (stereo unspecified) | i |
| O=S(=O)(N/N=C\c1cn(-c2ccccc2)nc1-c1ccccc1)c1ccccc1 | i |

The list itself, previewed entries included:
| structure | H5N1 CPE |
| --- | --- |
| O=C(O)CN1C(=O)SC(Nc2ccccc2C(=O)O)C1=O (stereo unspecified) | i |
| O=S(=O)(N/N=C\c1cn(-c2ccccc2)nc1-c1ccccc1)c1ccccc1 | i |
| CCC(C)NC(=O)C(NS(=O)(=O)c1cccc2nsnc12)c1ccccc1 (stereo unspecified) | 0.6 |
| Brc1c(CSc2nncn2-c2ccccc2)nc2sccn12 | 4.5 |
| CCCC(=O)Nc1ccc(C(=O)NNC(=S)NC(=O)c2cccs2)cc1 | 1.5 |
| Cc1c(C(=O)Nc2ccncc2)oc2ccccc12 | i |
| CCOc1ccccc1C1NC(=O)NC(C)=C1C(=O)OCc1ccco1 (stereo unspecified) | 1.2 |
| CN1C(=O)N(C)C(NC(=O)Nc2ccccc2)C1NC(=O)Nc1ccccc1 (stereo unspecified) | 0.3 |
| CCOc1ccc(NC(=O)c2ccc(N)cc2)cc1 | i |
| Cn1c(SCc2nc3ccccc3[nH]2)nnc1-c1cccs1 | 0.1 |
| COc1ccc(CNC(=O)C2COc3ccccc3O2)c(OC)c1 (stereo unspecified) | 3.3 |
| CCOc1ccc(NC(=O)CCS(=O)(=O)c2ccc3c(c2)CCCN3C(C)=O)cc1 | 1.3 |
| Cc1cc(Oc2ccccc2F)nc(NCc2ccccc2)n1 | 0.6 |
| CCc1ccc(NC(=O)CSc2nnc(-c3cccs3)n2CC)cc1 | i |
| CC1CCCN(C(=O)CSCC(=O)N=c2sc3ccccc3n2C)C1 (stereo unspecified) | i |
| CCNC(=O)c1ccccc1-c1nc(-c2ccccc2Cl)no1 | 1.2 |
| N#CCC(=O)NCCCOC(=O)Nc1ccc(Cl)c(Cl)c1 | 1.3 |
| Cn1nnnc1SCc1cn2cccnc2n1 | 0.1 |
| CSc1ccc(/C=N\NC(=O)COc2ccc(Cl)cc2Br)cc1 | i |
| O=C(CSc1nc(-c2cccs2)cc(C(F)(F)F)n1)NCc1ccco1 | 2.0 |
| Cc1ccccc1C(=O)Oc1ccc(Br)cc1C(=S)N1CCCC1 | 1.8 |
| O=C(NC1CCCCCC1)c1ccc(N2CCCC2=O)cc1 | 1.5 |
| CC(C)CC(=O)Nc1ccc(C(=O)NNC(=O)C(c2ccccc2)c2ccccc2)cc1 | 0.3 |
| CCOC(=O)C1CCCN(C(=O)C2CC(=O)N(c3ccc(C)cc3)C2)C1 (stereo unspecified) | i |
| Cc1cccc(-c2nc(CSCC(=O)N3CCN(c4ccccn4)CC3)c(C)o2)c1 | 0.6 |
| COC(=O)CCN(C(=O)C1C2CC3CC(C2)CC1C3)c1ccccn1 (stereo unspecified) | 0.1 |
| CCCCN(CC)C(=O)Cc1c(C(=O)O)[nH]c2ccc(Cl)cc12 | 0.1 |
| O=C1CCCN1CC(CN1CCOCC1)Sc1nnnn1-c1ccccc1 (stereo unspecified) | 0.6 |
| O=C(Nc1cccnc1)c1cc(-c2cccnc2)nc2ccc(Br)cc12 | 0.2 |
| Cc1ccc(C)c(S(=O)(=O)Nc2ccc(S(=O)(=O)Nc3onc(C)c3C)cc2)c1 | 1.4 |
| COc1ccc(NC(=O)CC2C(=O)N(c3ccc(OC)cc3)C(=O)N2C(C)C)cc1 (stereo unspecified) | 1.0 |
| O=S(=O)(NCc1ccc2c(c1)OCO2)c1cccc(S(=O)(=O)N2CCOCC2)c1 | 0.6 |
| Brc1cccc(OCCn2ccnc2)c1 | i |
| CCCC(c1nnnn1C1CCCCC1)N1CCN(C2CCCC2)CC1 (stereo unspecified) | i |
| NC(=O)c1cc(Cl)cn(-c2ccccc2)c1=O | 1.0 |
| COc1ccccc1N1CCN(c2ncnc3nc[nH]c23)CC1 | i |
| NC(=O)C1(N2CCCCC2)CCN(CC(=O)Nc2cc(Cl)ccc2Cl)CC1 | 1.5 |
| Cc1ccc(N2C(=O)c3ccc(N)cc3C2=O)cc1 | 0.6 |
| CC(=O)Nc1ccc(C2(O)COc3ccccc3O2)cc1 (stereo unspecified) | i |
| O=C(Nc1cccnc1)c1cn(-c2ccccc2)nc1-c1cccs1 | i |
| Cc1ccc(CNC(=O)CSc2nc3ccccc3c3nc(C)nn23)cc1 | 0.9 |
| O=C(c1cc(Cl)ccc1Cl)N1CCN(c2ccccn2)CC1 | 0.6 |
| Cc1cc(C)n(CC(O)COc2cccc(OCC(O)Cn3nc(C)cc3C)c2)n1 (stereo unspecified) | 0.6 |
| CCCCn1c(SCC(=O)NCCOC)nc2ccc(N3CCOCC3)cc2c1=O | 0.3 |
| COc1cccc(C2CC(C(F)(F)F)n3ncc(C(=O)O)c3N2)c1 (stereo unspecified) | i |
| CCN1CCc2nc(NC(=O)Cc3ccc4c(c3)OCCO4)sc2C1 | 1.1 |
| C=CCn1c(-c2ccc(C)cc2)nc2ccccc21 | i |
| O=C(NC(Cc1ccccc1)C(=O)O)c1ccc(S(=O)(=O)N2CCCC2)cc1 (stereo unspecified) | 0.6 |
| O=C(CN1C2=NCCN2c2ccccc21)C12CC3CC(CC(C3)C1)C2 | i |
| COc1ccc(NC(=O)CSc2nnc(-c3ccccn3)n2Cc2ccco2)cc1OC | 0.7 |
| COc1ccccc1N1CCN(C(=O)CSc2nc(-c3ccccc3)cc(=O)[nH]2)CC1 | i |
| O=C1/C(=C/c2cccnc2)Oc2cc(OS(=O)(=O)c3ccc(F)cc3)ccc21 | 4.4 |
| CNC(=S)NNC(=O)c1sccc1OCc1ccc(C)cc1 | 0.1 |
| Cc1nc2ccc(S(=O)(=O)Nc3ccccc3C)cc2s1 | 1.0 |
| Cn1c(SCC(=O)c2ccccc2)nnc1C1CC1 | 0.4 |
| O=c1c2c3c(sc2nc2n1CCCCC2)CCC3 | i |
| COCCCNS(=O)(=O)c1ccc2c(c1)OCCO2 | i |
| COc1cccc(N2C(=O)CC(N3CCN(C(=O)c4ccco4)CC3)C2=O)c1 (stereo unspecified) | i |
| COc1cccc(Cn2nnc(C(=O)Nc3cc(C)ccc3OC)c2N)c1 | i |
| COc1ccccc1NC(=O)Nc1ccc2c(c1)nnn2C | i |

New compounds follow.
| structure | H5N1 CPE |
| --- | --- |
| Cc1ccc(SCCNC(=O)c2ccccc2)cc1 | 0.3 |
| O=C(Oc1cccc(N2C(=O)CCC2=O)c1)C1CC(=O)N(c2ccc(F)cc2)C1 (stereo unspecified) | i |
| Cc1nonc1NC(=O)Nc1cccnc1 | i |
| O=S(=O)(Nc1nc2ccccc2nc1NCCO)c1cccc(Cl)c1 | 0.4 |
| O=C(CN1CCN(c2ncccn2)CC1)NCc1ccccc1 | i |
| CC1(C)CC(=O)c2c(nc3ccccc3c2N)C1 | 3.0 |
| CC(NC(=O)c1ccc(F)cc1)c1ccc2c(c1)CCCC2 (stereo unspecified) | 1.4 |
| Cc1cc(C)nc(SCCCn2c(=O)[nH]c3ccccc32)n1 | 1.5 |
| C=CCc1cc(C=O)cc(OC)c1OCc1ccc(Cl)cc1 | i |
| O=C(CSc1nccn1-c1ccccc1)c1ccc(Br)cc1 | 0.3 |
| Cc1ccc(C(c2sc3ncnn3c2O)N2CC(C)CC(C)C2)cc1 (stereo unspecified) | 0.5 |
| CC(C)(C)NC(=O)Cn1nnc(-c2ccccc2Cl)n1 | 0.3 |
| Cn1nnnc1SCc1cc(=O)n2ccsc2n1 | i |
| COc1ccc(OC)c2sc(NC(=O)C3=COCCO3)nc12 | i |
| Cc1ccc(NC(=O)c2ccc(CSc3nnc(C)s3)cc2)c(C)c1 | i |
| COc1ccc(NC(=O)Nc2ccccc2OC)cc1 | i |
| CCOC(=O)c1[nH]c(C(=O)O)c(CCN(CC)CC)c1C | i |
| NC(=O)NC(=O)COC(=O)CCCc1c[nH]c2ccccc12 | i |
| N#Cc1ccccc1-n1c(N)c(C(=O)N2CCCC2)sc1=S | 0.1 |
| CCN1C(=O)C(O)(C2COC(C)(C)CC2=O)c2cc(Br)ccc21 (stereo unspecified) | i |
| COc1ccc(S(=O)(=O)N(C)CC(=O)O)c2ccccc12 | i |
| O=C(COc1ccc2ccccc2c1)NCCn1ccc2ccccc21 | 0.4 |
| Cn1c(N2CCCCC2)cc(=O)n(C)c1=O | 0.1 |
| Nc1nnc(-c2cn(-c3ccccc3)nc2-c2ccccc2)o1 | 3.3 |
| CSc1nc(NC(C)(C)C)nc(N2CCOCC2)n1 | i |
| Oc1ccc2ccccc2c1C1Nc2cccc3cccc(c23)N1 | 0.3 |
| COc1ccc(-c2[nH]nc3c2C(c2ccncc2)C(C#N)=C(N)O3)cc1 (stereo unspecified) | i |
| Cc1nccn1S(=O)(=O)c1ccc(Br)cc1Br | 0.1 |
| CC1=C(C(=O)OCC2CCCO2)C(c2ccc(C)o2)C2=C(CC(c3ccc(F)cc3)CC2=O)N1 (stereo unspecified) | i |
| COC(=O)C1=C(C)N=C2SC(C)C(=O)N2C1c1cccs1 (stereo unspecified) | 0.3 |
| O=C(NCCc1c[nH]c2ccccc12)c1ccc(-n2cnnn2)cc1 | 0.2 |
| COC(=O)Nc1sc2nc(C)cc(C)c2c1-n1cccc1 | i |
| CCC(=O)N1c2ccccc2NC2=C(C(=O)CCC2)C1c1cccnc1 (stereo unspecified) | i |
| CN1CCC(N(C)c2nc(-c3ccccc3)nc3ccccc23)CC1 | i |
| O=C(Nc1c(F)cc(F)cc1Br)C1CCCO1 (stereo unspecified) | i |
| c1c(C2CCCCC2)n[nH]c1CN1CCCCC1 | 0.6 |
| O=C(CN1C(=O)COc2ccccc21)N1CCCc2ccccc21 | 2.2 |
| CCOC(=O)C1CN(S(=O)(=O)c2ccccc2)CCN1S(=O)(=O)c1ccccc1 (stereo unspecified) | 3.6 |
| CC(=O)Nc1ccc(NC(=O)C(C)OC(=O)CN(C)S(=O)(=O)c2ccc(Cl)cc2)cc1 (stereo unspecified) | i |
| CC(Oc1ccc(Cl)cc1Cl)C(=O)N/N=C1\CCCc2ccccc21 (stereo unspecified) | 0.5 |
| O=C(c1cc2ncc(Br)cn2n1)N1CCN(C(=O)c2ccco2)CC1 | 1.9 |
| CCCCCOC(=O)CSc1nnc(-c2ccccc2)c(=O)[nH]1 | 1.0 |
| COc1cc(C2NC(=O)C(C#N)=C(S)N2c2ccc(C)cc2)ccc1OC(C)C (stereo unspecified) | i |
| CN(C1CCCCC1)S(=O)(=O)c1ccc(NC(=O)c2ccc(Br)o2)cc1 | i |
| NC(=O)Cc1cn(-c2ncc(C(F)(F)F)cc2Cl)c2ccccc12 | i |

Shown as labelled records: entries from further up.
> O=C(CN1C(=O)COc2ccccc21)N1CCCc2ccccc21
  H5N1 CPE: 2.2

> CCOC(=O)C1CN(S(=O)(=O)c2ccccc2)CCN1S(=O)(=O)c1ccccc1 (stereo unspecified)
  H5N1 CPE: 3.6

> CC(=O)Nc1ccc(NC(=O)C(C)OC(=O)CN(C)S(=O)(=O)c2ccc(Cl)cc2)cc1 (stereo unspecified)
  H5N1 CPE: i

> CC(Oc1ccc(Cl)cc1Cl)C(=O)N/N=C1\CCCc2ccccc21 (stereo unspecified)
  H5N1 CPE: 0.5

Further compounds.
| structure | H5N1 CPE |
| --- | --- |
| Cc1ccc(NC(=O)Nc2cccs2)nc1 | 0.4 |
| CCOC(=O)Nc1ccc2c(c1)N(C(=O)CCN1CCOCC1)c1ccccc1S2=O (stereo unspecified) | 3.3 |
| O=C(COC(=O)c1ccccn1)Nc1cccc(Cl)c1Cl | i |
| O=[N+]([O-])c1cccc(-c2ccc(/C=N/NC(=S)Nc3ccccc3)o2)c1 | i |
| O=C(COC(=O)CCNS(=O)(=O)c1ccc2c(c1)OCCO2)NC1CCCc2ccccc21 (stereo unspecified) | 0.7 |
| COc1ccc(-c2nn(C)c(=O)c3ccccc23)cc1NC(=O)Cn1nc(C)c2ccccc2c1=O | i |
| CCOC(=O)c1ccc(Nc2cc(C)nc(N3CCOCC3)n2)cc1 | 1.1 |
| c1ccc(CCn2nnnc2CN2CCCc3ccccc32)cc1 | 1.9 |
| COc1cccc(OC(C)c2ccnc3nc(/N=C/N(C)C)nn23)c1 (stereo unspecified) | i |
| CCOc1ccc2[nH]c(=O)c(CN(Cc3nnnn3Cc3ccco3)C3CCCCC3)cc2c1 | i |
| CCOC(=O)COc1ccc(S(=O)(=O)N2CCN(C(=O)OCC)CC2)cc1 | 0.1 |
| CCOc1cc(S(=O)(=O)NCc2cccs2)ccc1Cl | i |
| O=C(CSc1nnc(-c2cccc(S(=O)(=O)N3CCCCC3)c2)o1)NCCC1=CCCCC1 | i |
| O=C(COC(=O)CCCNC(=O)c1ccc(Cl)cc1)NC1CC1 | i |
| c1ccc2oc(N3CCNCC3)nc2c1 | i |
| COc1ccccc1C(=O)Nn1cnc2ccccc2c1=O | 1.4 |
| CCCc1[nH]nc2c1C(c1ccncc1)C(C#N)=C(N)O2 (stereo unspecified) | i |
| COc1ccc(OC)c(NC(=O)C23CC4CC(C2)CC(n2cnc(Br)n2)(C4)C3)c1 | 2.6 |
| Cc1cc(NC(=O)c2c(-c3ccccc3Cl)noc2C)no1 | i |
| CCOc1nc(NCc2ccco2)nc(Nc2ccc(OC)cc2)n1 | i |
| O=C(c1cc(-c2ccc(Cl)cc2)n(-c2cc(Cl)ccc2Cl)n1)N1CCOCC1 | 2.3 |
| COc1ccc(N(CC(=O)Nc2nccs2)S(=O)(=O)c2c(C)nn(C)c2C)cc1 | 2.8 |
| Clc1ccc(/C=N/c2c(-c3ccc(Cl)cc3)nc3n2CCS3)cc1 | i |
| COCCN1C(=O)C(=O)/C(=C(/O)c2cccc(OC)c2)C1c1ccco1 (stereo unspecified) | i |
| Cc1nnc(SCCn2c(Br)nc3c2c(=O)n(C)c(=O)n3C)s1 | 1.3 |
| Clc1cccc(Cl)c1CSc1nnc(CN2CCOCC2)n1-c1ccccc1 | 1.3 |
| CCOC(=O)c1c(N)sc(C(O)(C(F)(F)F)C(F)(F)F)c1-c1ccccc1 | i |
| CC1(C)CC(CC(=O)O)(c2ccc(F)cc2)CCO1 (stereo unspecified) | 1.7 |
| COc1cc(C2C3C(=O)N(c4ccccc4)C(=O)C3ON2c2ccccc2)ccc1O (stereo unspecified) | i |
| CCCC(=O)NCc1nc2ccccc2n1C | 0.4 |
| Cn1c(=O)c2c(nc(NCc3cccnc3)n2Cc2cccc(C(F)(F)F)c2)n(C)c1=O | 0.0 |
